# Luciferase inh: inhibitors of firefly (Photinus pyralis) luciferase. P08659. purified P. pyralis luciferase, luminescence, biochemical. Potency, µM (titrated, usually from 115 µM), inactives show at the highest dose activity change, negative = inhibition, usual class: inhibitors. 76,000 tested, 2.5% active. AID 1347043; also: nearly all actives have a fitted effect of over 65% in size
# Target sequence (P08659 whole entry, looked up): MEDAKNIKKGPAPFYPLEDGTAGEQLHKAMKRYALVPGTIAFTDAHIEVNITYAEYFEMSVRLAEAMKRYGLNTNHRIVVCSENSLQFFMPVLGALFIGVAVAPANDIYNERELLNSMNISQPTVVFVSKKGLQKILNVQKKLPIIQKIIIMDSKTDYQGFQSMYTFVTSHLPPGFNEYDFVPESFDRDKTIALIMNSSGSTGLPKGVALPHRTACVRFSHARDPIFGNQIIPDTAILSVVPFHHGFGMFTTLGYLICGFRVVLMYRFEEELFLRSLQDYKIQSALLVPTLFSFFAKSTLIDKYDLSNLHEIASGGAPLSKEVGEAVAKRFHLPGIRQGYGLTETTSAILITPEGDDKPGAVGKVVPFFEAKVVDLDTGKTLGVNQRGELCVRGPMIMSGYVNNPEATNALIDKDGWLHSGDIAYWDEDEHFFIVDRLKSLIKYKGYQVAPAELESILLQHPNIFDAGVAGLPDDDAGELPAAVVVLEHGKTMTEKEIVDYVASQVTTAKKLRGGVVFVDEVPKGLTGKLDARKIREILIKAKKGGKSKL
#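 Biochemical qHTS: compound (6-point titration) added to 10uM D-luciferin plus 10uM ATP in Tris acetate pH 7.5 buffer with Mg, Tween-20 and BSA, then purified enzyme at 10nM; light output imaged.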
# 3T3 cytotox: kills NIH 3T3 cells | NIH 3T3 viability, CellTiter-Glo ATP luminescence, 48-72 h | Potency, µM (doses to about 96.7 µM), for the others: top-dose activity change, negative = cytotoxicity, actives largely listed as inhibitors | 94,000 tested, 4.3% active; also: nearly all actives have a fitted effect of over 55% in size
#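 First NIH 3T3 cells are plated at 400 cells/well; next compound is pinned in; then plates incubate 48 or 72 hr at 37 °C; finally CellTiter-Glo is added and luminescence read after 10 min.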
# HEK293 tox: HEK 293 cell cytotoxicity. HEK 293 viability, ATP luminescence (CellTiter-Glo), 48-72 h. Potency, µM (series often up to 115 µM), for the others: top-dose activity change, negative = cytotoxicity, usual class: inhibitors. 94,000 tested, 6.6% active; also: nearly all actives have a fitted effect of over 60% in size
#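 Pintool-delivered compounds were incubated with HEK 293 cells (250 cells/well) at 37 degree Celsius for 48 or 72 hr. ATP-dependent luminescence (CellTiter-Glo) then reported remaining viable cells.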
# SNCA expr inhib: reduces expression of the alpha-synuclein gene | Potency, µM (doses to about 57.2 µM), for inactives: top-dose activity change, negative = inhibition, actives largely listed as inhibitors | 140,000 tested, 0.17% active | HEK-293 SNCA-luciferase knock-in, luminescence, 24 h;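 also: plate controls were DMSO cells for no effect and cell-free wells for full effect; nearly all actives have a fitted effect of over 45% in size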
# Starred values were filed as active, the others as inactive; i = inactive; ? = inconclusive; / = not tested or not shown; [ ] = another dose, or the depositor's remark. Calls follow the shape of the dose curve; as a rule, active = well fitted curve in the direction sought with a large enough effect; inconclusive = small, poorly fitted or top-dose-only effect, or another doubt; inactive = no such curve, though single readings can be large; an effect the other way counts as inactive or inconclusive. Unless noted, % is scaled to controls: 0 for no effect and ±100 for the full control effect; potency is read from the fitted curve at half-maximal effect.
# Start of the listing, in advance:
SMILES,Luciferase inh,3T3 cytotox,HEK293 tox,SNCA expr inhib
COCCN1C[C@@H]2CN(C(=O)c3cnc[nH]c3=O)C[C@]2(C(=O)O)C1,?,i,-3.1%,-23.7%
CC(C)CCN1CC2(C1)C(=O)Nc1ccccc12,/,-9.8%[174 µM],-29.9%[230 µM],-24.5%[87.6 µM]

# This part in full, previewed entries included:
SMILES,Luciferase inh,3T3 cytotox,HEK293 tox,SNCA expr inhib
COCCN1C[C@@H]2CN(C(=O)c3cnc[nH]c3=O)C[C@]2(C(=O)O)C1,?,i,-3.1%,-23.7%
CC(C)CCN1CC2(C1)C(=O)Nc1ccccc12,/,-9.8%[174 µM],-29.9%[230 µM],-24.5%[87.6 µM]
COc1ccccc1NC(=O)N1C[C@@H]2C[C@H](C1)c1c(C3CCCCC3)ccc(=O)n1C2,-0.2%[172 µM],?,-9.6%[172 µM],2.0%[87.6 µM]
O=C(CCCN1CCC2(CC1)C(=O)NCN2c1ccccc1)c1ccc(F)cc1,/,/,/,7.2%

# A draw from above in order of heavy-atom count, descending.
SMILES,Luciferase inh,3T3 cytotox,HEK293 tox,SNCA expr inhib
COc1ccccc1NC(=O)N1C[C@@H]2C[C@H](C1)c1c(C3CCCCC3)ccc(=O)n1C2,-0.2%[172 µM],?,-9.6%[172 µM],2.0%[87.6 µM]
O=C(CCCN1CCC2(CC1)C(=O)NCN2c1ccccc1)c1ccc(F)cc1,/,/,/,7.2%
CC(C)CCN1CC2(C1)C(=O)Nc1ccccc12,/,-9.8%[174 µM],-29.9%[230 µM],-24.5%[87.6 µM]

# High-throughput results deposited in PubChem BioAssay by National Center for Advancing Translational Sciences (NCATS).

# A portion of the library; count on the stated rates, not on these rows.
